ABCB6 inh MLPCN: blocks the human ABCB6 transporter. K562-ABCB6 porphyrin accumulation, flow cytometry, 1 h; hits give low values. Q9NP58. 360,000 tested, 0.19% active. fluorescence ratio to DMSO, % at 10 µM. AID 602162;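 active = fluorescence ratio to DMSO below 75%, the collection mean minus 3 SD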;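 note: signal is porphyrin accumulated inside mitochondria; 100% equals median channel fluorescence of DMSO control wells; lower ratio means ABCB6 inhibition with less porphyrin fluorescence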
aDG glyco up: increases alpha dystroglycan glycosylation; activation, % at 10 µM; Pro5-aDG cells, alpha-DG glycosylation AlphaScreen (IIH6); 0% Pro5, 100% B10-LARGE cell signal; AID 624168; 360,000 tested, 0.22% active;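 active = activation of at least 8% versus controls, or a plate z-score of at least 8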;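 note: Pro5 are CHO cells carrying HIG-tagged alpha-DG that lacks glycosylation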
ABHD5 PLIN5 PPI: blocks binding of human ABHD5 to perilipin-5 | Split G. princeps luciferase complementation, luminescence, 4 h | inhibition, % at 4 µM | 360,000 tested, 0.78% active | AID 602281;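 active = inhibition above the mean inhibition across every tested compound plus 3 SD, cut at about 22% in these data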;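 note: 0% = DMSO only wells and the 100% control is not disclosed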
Target sequence (Q00G26 whole entry, looked up): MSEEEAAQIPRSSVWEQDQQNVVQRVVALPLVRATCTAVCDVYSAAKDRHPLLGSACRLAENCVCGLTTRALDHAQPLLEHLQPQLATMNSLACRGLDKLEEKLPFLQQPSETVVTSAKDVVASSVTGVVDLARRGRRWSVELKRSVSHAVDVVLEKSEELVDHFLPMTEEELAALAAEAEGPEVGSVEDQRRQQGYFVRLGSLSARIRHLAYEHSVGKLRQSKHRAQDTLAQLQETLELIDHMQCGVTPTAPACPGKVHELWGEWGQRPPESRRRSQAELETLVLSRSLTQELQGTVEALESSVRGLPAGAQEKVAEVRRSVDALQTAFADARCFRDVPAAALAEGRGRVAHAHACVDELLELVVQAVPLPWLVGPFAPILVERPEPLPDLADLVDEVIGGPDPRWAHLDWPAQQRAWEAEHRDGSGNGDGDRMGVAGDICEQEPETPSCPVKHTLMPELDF
Target sequence (Q8WTS1 whole entry, looked up): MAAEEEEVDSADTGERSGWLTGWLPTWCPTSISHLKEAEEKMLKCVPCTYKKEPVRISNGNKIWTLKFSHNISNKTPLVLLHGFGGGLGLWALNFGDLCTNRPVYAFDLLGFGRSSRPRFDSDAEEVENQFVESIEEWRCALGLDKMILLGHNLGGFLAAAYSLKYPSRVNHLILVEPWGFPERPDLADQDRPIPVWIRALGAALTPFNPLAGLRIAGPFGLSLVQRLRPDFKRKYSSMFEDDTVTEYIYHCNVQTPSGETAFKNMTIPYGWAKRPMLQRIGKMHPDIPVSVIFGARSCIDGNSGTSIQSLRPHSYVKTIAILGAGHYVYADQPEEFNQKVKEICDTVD
Vif imaging: inhibitors of HIV Vif | HEK293T cells, Vif self-association by quenched fluorescence, imaging, 24 h | inhibition, % at 7.49 µM | 340,000 tested, 0.35% active | AID 602346; in the data active = inhibition above about 50%, passing the limit was not always enough; note: some results filed as inactive read as strong as hits
N-glyco inh: N-linked glycosylation inhibition | D54 ERlucT glycosylation luciferase reporter, 24 h; percent of 100 nM tunicamycin response | reporter increase, % at 12.5 µM | 360,000 tested, 0.23% active;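 active = mean luciferase reporter signal, scaled so untreated is 0 and the glycosylation-blocking control 100, at or above a set limit in every replicate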;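 note: luciferase carries N-glycosylation sites so blocking glycosylation raises the light; 0% = median of neutral control wells and 100% = median of 100 nM tunicamycin wells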
* = called active by the depositor; & = joins results of further samples.

Under each structure: Vif imaging, aDG glyco up, ABHD5 PLIN5 PPI, ABCB6 inh MLPCN, N-glyco inh
- CNCCC(Oc1ccc(C(F)(F)F)cc1)c1ccccc1 (stereo not given)
  -0.9, 0.1, 7.1, 101.0, 1.5
- CNCC[C@@H](Oc1ccc(C(F)(F)F)cc1)c1ccccc1
  -2.6, 1.3, 11.4, 96.0, 0.4
- C[C@@H]1C[C@@H]([C@H](O)CC2CC(=O)NC(=O)C2)C(=O)[C@@H](C)C1
  -24.2, -0.1, 11.3, 99.0, -23.9
- O=c1[nH]c2ccccc2n1CCCN1CCC(n2c(=O)[nH]c3cc(Cl)ccc32)CC1
  -1.8, 0.1, -1.0, 99.0, -1.2
- Clc1ccc(COC(Cn2ccnc2)c2ccc(Cl)cc2Cl)c(Cl)c1 (stereo not given)
  -4.9&-3.2, 0.5&1.5, -9.1&-3.6, 96.0&102.0, -4.0&-4.1
- CN1CCCC1CCOC(C)(c1ccccc1)c1ccc(Cl)cc1 (stereo not given)
  -1.7, 0.2, 24.6*, 97.0, 6.0
- CC(C)[N+]12CCC(CC1)C(C(O)(c1ccccc1)c1ccccc1)C2 (stereo not given)
  -4.3, 0.0, -1.4, 102.0, 4.9
- CN1CCN(C(=O)COc2ccc(-c3nc4ccccc4s3)cc2)CC1
  -4.8, 0.0, 3.4, 100.0, -11.9
- CN(C)/C=C(\C=[N+](C)C)c1[nH]ncc1[N+](=O)[O-]
  -6.0, 0.1, 1.7, 104.0, -1.1
- CN1CCC(N(C)Cc2cccnc2)CC1
  13.4, -0.2, -0.3, 95.0, 1.8

Retrieved by compound from the list above:
Under each structure: Vif imaging, aDG glyco up, ABHD5 PLIN5 PPI, ABCB6 inh MLPCN, N-glyco inh
- CN1CCN(C(=O)COc2ccc(-c3nc4ccccc4s3)cc2)CC1
  -4.8, 0.0, 3.4, 100.0, -11.9
- CNCC[C@@H](Oc1ccc(C(F)(F)F)cc1)c1ccccc1
  -2.6, 1.3, 11.4, 96.0, 0.4

In another format: entries from further up.
SMILES | Vif imaging | aDG glyco up | ABHD5 PLIN5 PPI | ABCB6 inh MLPCN | N-glyco inh
O=c1[nH]c2ccccc2n1CCCN1CCC(n2c(=O)[nH]c3cc(Cl)ccc32)CC1 | -1.8 | 0.1 | -1.0 | 99.0 | -1.2
C[C@@H]1C[C@@H]([C@H](O)CC2CC(=O)NC(=O)C2)C(=O)[C@@H](C)C1 | -24.2 | -0.1 | 11.3 | 99.0 | -23.9
CNCC[C@@H](Oc1ccc(C(F)(F)F)cc1)c1ccccc1 | -2.6 | 1.3 | 11.4 | 96.0 | 0.4
CN1CCCC1CCOC(C)(c1ccccc1)c1ccc(Cl)cc1 (stereo not given) | -1.7 | 0.2 | 24.6* | 97.0 | 6.0
CN(C)/C=C(\C=[N+](C)C)c1[nH]ncc1[N+](=O)[O-] | -6.0 | 0.1 | 1.7 | 104.0 | -1.1

Not all compounds are listed, so the mix of outcomes need not match the whole.
